Hsc70: Hsc70 inhibitors, probe displacement, primary screen, biochemical, fluorescence polarization (AID 568); Hsc70 fluorescence polarization, probe displacement; higher % means a stronger effect; strong numbers were not always called active; one-dose displacement, % at 20 µM; IC50 in µM for titrated hits; 83,000 tested, under 10 active;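 active means displacement above 50% without optical interference and an IC50 on retest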;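 further: ATPase domain with a fluorescein-tagged ATP probe; 0% = vehicle and 100% = excess ADP; read after one hour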
MT1-MMP reporter: inhibitors of MT1-MMP promoter transcription, cell-based, luciferase reporter, luminescence (AID 618); calls from a first round at 10 µM; hits with a dose series show EC50 in µM; actives 0.62% (n = 87,000); MT1-MMP promoter luciferase reporter cells, luminescence;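 active means over half of the reporter light lost at 10 µM or EC50 under 50 µM; inactive means the rest and hits that failed the dose series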;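 further: actives suppress MT1-MMP promoter-driven transcription so potencies describe inhibitors; HT1080 fibrosarcoma cells; overnight exposure; toxic or luciferase-blocking compounds were not removed from the actives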
WNV protease inh: inhibitors of West Nile virus NS2B-NS3 protease; WNV NS2B-NS3 protease, fluorogenic substrate Ex360/Em465; hits give low values; P06935; z-score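 (tested at a level between 10 and 100 µM)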; AID 577; actives 0.18% (n = 65,000);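 active means z-score at -3 or under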;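 further: score is relative to mean and spread of the compound wells of a plate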
Target sequence (P06935 1371-1501 limits assumed): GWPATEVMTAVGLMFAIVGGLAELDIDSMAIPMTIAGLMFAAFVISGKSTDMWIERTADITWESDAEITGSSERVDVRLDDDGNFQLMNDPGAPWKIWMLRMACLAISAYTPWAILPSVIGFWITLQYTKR
Target sequence (P06935 1502-1679 limits assumed): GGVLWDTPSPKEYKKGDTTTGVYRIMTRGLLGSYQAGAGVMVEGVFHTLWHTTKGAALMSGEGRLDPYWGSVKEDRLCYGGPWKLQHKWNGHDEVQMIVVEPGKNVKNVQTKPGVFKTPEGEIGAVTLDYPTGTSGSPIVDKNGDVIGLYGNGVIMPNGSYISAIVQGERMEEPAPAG
Numbers without * were called inactive; i = inactive; / = not tested or not shown. The list is partial, so the mix of outcomes need not match the whole.

Molecule	Hsc70	MT1-MMP reporter	WNV protease inh
O=C(CSC1=NCCS1)N1CCCC1	2.6%	i	-0.31
Cc1ccc(-c2ccc(=O)n(CC(=O)NCCN3C(C)CCCC3C)n2)cc1 (stereo unspecified)	-2.6%	i	1.7
c1ccc(CCNc2ncnc3c2nnn3Cc2ccccc2)cc1	0.2%	i	0.24
CCc1ccccc1OCCCCN1CCCC1	-3.9%	i	0.58
C=CCn1c(-c2c[nH]c3ccccc23)n[nH]c1=S	4.3%	i	0.13
CN(CC(=O)O)S(=O)(=O)c1cccs1	3.8%	i	0.45
CN(C)CCCCNCCCNC(=O)/C=N\O	1.6%	i	/
CCOC(=O)N1CCN(C(=O)c2ccc(N3CCCC3=O)cc2)CC1	-4.8%	i	-1.28
OC1(c2cccc(C(F)(F)F)c2)CCN(c2ncnc3c2[nH]c2ccccc23)CC1	-6.4%	i	0.22
COc1cc(C2NC(=O)C(C#N)=C(S)N2c2ccccc2)ccc1OC(C)C (stereo unspecified)	0.5%	i	/
O=C(CCCOc1ccccc1)N1CCc2ccccc2C1	4.1%	i	0.56
O=C(CSc1nc2ccccc2c(=O)[nH]1)c1ccccc1	0.4%	i	/

7 records picked at random from the list so far, as already listed:
Molecule	Hsc70	MT1-MMP reporter	WNV protease inh
O=C(CCCOc1ccccc1)N1CCc2ccccc2C1	4.1%	i	0.56
CCOC(=O)N1CCN(C(=O)c2ccc(N3CCCC3=O)cc2)CC1	-4.8%	i	-1.28
O=C(CSC1=NCCS1)N1CCCC1	2.6%	i	-0.31
CN(C)CCCCNCCCNC(=O)/C=N\O	1.6%	i	/
OC1(c2cccc(C(F)(F)F)c2)CCN(c2ncnc3c2[nH]c2ccccc23)CC1	-6.4%	i	0.22
COc1cc(C2NC(=O)C(C#N)=C(S)N2c2ccccc2)ccc1OC(C)C (stereo unspecified)	0.5%	i	/
CCc1ccccc1OCCCCN1CCCC1	-3.9%	i	0.58

Next entries follow:
Molecule	Hsc70	MT1-MMP reporter	WNV protease inh
O=C(NC12CC3CC(CC(C3)C1)C2)N1CC2Cc3cccc(=O)n3C(C2)C1 (stereo unspecified)	-0.9%	i	1.94
Cc1cc(NCC2CCCO2)n2c(nc3ccccc32)c1C#N (stereo unspecified)	0.3%	i	1.43
Cn1nnc2c(N3CCCCC3)nccc21	3.4%	i	-0.39
NC(=O)c1cccn1Cc1ccccc1Cl	-4.7%	i	-0.99
Cc1nc2ccc(NC(=O)Cn3cnc4c3c(=O)n(C)c(=O)n4C)cc2s1	-1.1%	i	-0.53
CC(C)NC(=O)c1c(O)c2ccccc2[nH]c1=O	-2.9%	i	0.95
COc1ccc(NC(C)=O)cc1NC(=O)CN1CCN(CC(=O)Nc2ccccc2Cl)CC1	-0.2%	i	0.2
O=C(C1CC(c2ccccc2O)=NO1)N1CCc2ccccc2C1 (stereo unspecified)	-0.1%	i	/
COc1ccc(N2CCN(C(=O)c3ccc(NS(=O)(=O)c4ccc(F)c(F)c4)cc3)CC2)cc1	1.3%	i	-1.71
CC1CCc2sc(C(=O)Nc3nnc(SCc4ccc(F)cc4)s3)cc2C1 (stereo unspecified)	-15.7%	i	/
CC(C)CN(CCCNC(=O)CC1Oc2ccccc2NC1=O)CC(C)C (stereo unspecified)	2.8%	i	1.07
Cc1ccc(N(C)C(=O)N2CCN(S(=O)(=O)c3ccc(C)cc3)CC2)cc1	-0.3%	i	-1.1
CCN(CC)CCCN1C(=O)c2oc3ccccc3c(=O)c2C1c1cc(OC)ccc1OC (stereo unspecified)	-4.3%	i	-0.84
O=C(O)CSCCCC(=O)Nc1ccc(Br)cc1	0.2%	i	0.32
CCn1c(=O)n(CC(=O)Nc2cc(OC)ccc2OC)c(=O)c2ccccc21	-2.0%	i	-0.58
CCOC(=O)c1c(NC=O)sc2c1CCC2	1.6%	i	/
COc1cccc(C(C(=O)NC2CCCC2)N(C(=O)c2ccco2)C2CC2)c1OC (stereo unspecified)	2.1%	i	0.57
Cc1cc(C)nc(N2CCC(C(=O)Nc3cccc(C(F)(F)F)c3)CC2)n1	-8.9%	i	-0.89
CCOC(=O)CN(Cc1ccccc1)S(=O)(=O)c1ccc(NC(C)=O)cc1	-4.7%	i	-0.5
O=C(NCCCN1CCCCCC1)c1ccc(N2CCCC2=O)cc1	-8.1%	i	-0.51
CC(=O)c1cccc(NC(=O)C2CCCN(S(=O)(=O)c3cccc4cccnc34)C2)c1 (stereo unspecified)	2.4%	i	-0.58
CCCSc1ncnc2c1oc1ccccc12	0.1%	i	-0.61
CN1C2C=C3C(C#N)=C(N)C(C#N)(C#N)C(c4ccc(Br)cc4)C3C1CC2 (stereo unspecified)	-3.0%	i	/
c1cncc(-c2nn3c(-c4ccncc4)nnc3s2)c1	2.5%	i	-0.6
COc1cc2nc(N(C)C)nc(N)c2cc1OC	-3.6%	i	1.68
CCN(Cc1ccccc1)C(=O)Cn1cc2c(n1)CCCC2	-5.6%	i	-0.5
Cc1ccc(SCCC(=O)NCc2ccco2)cc1	-3.9%	i	-0.86
COc1ccc(-c2nc(CS(=O)CC(=O)NCc3cccnc3)c(C)o2)cc1 (stereo unspecified)	1.8%	i	-0.21
COc1ccc(CN(C(=O)c2snc(C(N)=O)c2N)C(C(=O)NC(C)(C)C)c2ccco2)cc1 (stereo unspecified)	0.4%	i	-0.07
CC(C)Cn1nc(NC(=O)C(C)(C)C)c2cc3ccccc3nc21	-5.1%	i	-0.34
CCOC(=O)c1cc(-c2ccccc2)n(CC(=O)N2CCCC2)c1C	-9.2%	i	0.67
CC1CCCCN1Cc1nc2c(c(=O)n(C)c(=O)n2C)n1CCCc1ccccc1 (stereo unspecified)	-0.7%	i	-0.1
O=C(Nc1cccnc1)Nc1ccc(Br)cc1Cl	-3.5%	i	0.07
CC1C(c2ccccc2)=[N+]([O-])C2(CCCC2)N1O (stereo unspecified)	1.8%	i	0.24
COC(=O)c1ccccc1NC(=O)Nc1nnc(N2CCCCC2C)s1 (stereo unspecified)	-3.8%	i	0.15
CC1(C)OC(C(N)=O)C(C(N)=O)O1 (stereo unspecified)	-1.3%	i	-0.92
COc1cccc(C(=O)NCc2ccccc2OC)c1	-3.4%	i	0.19
O=C(Cc1ccccc1)N1CCc2ccccc21	-0.2%	i	/
Cc1ccc(OCCCNCCO)c(Br)c1	-2.3%	i	/
CCOc1ccc(C2CC(c3cccc(OC)c3)Nc3nc(N)nn32)cc1 (stereo unspecified)	0.1%	i	0.85
O=c1cc(C(F)(F)F)c2sc(N3CCCCC3)nc2[nH]1	7.5%	i	1.59
O=C(O)c1cccc(N2CCCC2)c1	2.5%	i	0.69
CCOc1ccc(S(=O)(=O)N(CC(=O)O)c2ccc(C)cc2)cc1	5.8%	i	0.57
CC(C)c1ccc(-c2nnn(CCC(=O)O)n2)cc1	-1.0%	1.04µM*	0.1
O=C(Cc1c(C(=O)O)[nH]c2ccccc12)NCCN1CCN(c2cccc(Cl)c2)CC1	5.1%	i	-0.05
Cc1c(C(=O)NC2CCCCC2)oc2c1C(=O)CC(C)(C)C2	-0.3%	i	0.21
CCCCC1(O)CC(C(F)(F)F)=NN1C(=O)COc1ccccc1 (stereo unspecified)	-3.7%	i	/
CSC(=NS(=O)(=O)c1ccc(C)cc1)SC	9.1%	i	-0.25
CC(=O)CSc1nc2ccccc2o1	-0.4%	i	/
O=S(=O)(NC1CCCCCC1)c1cccc2cccnc12	1.9%	i	-0.46
O=C(CCC1CCCCC1)Nc1cccnc1	0.6%	i	/
CC(=O)c1cc2cc(O)ccc2o1	-0.1%	i	8.25
Cn1c(SCC(=O)NC2CCCCCC2)nnc1-c1cccs1	2.1%	i	-0.64
Nc1nc(-c2ccccc2)nn1C(=O)Cc1ccccc1	0.4%	i	-1.52
O=C(O)c1ncc(-c2ccccc2)cn1	1.6%	i	-1.48
O=C(NCc1cn2ccsc2n1)c1cccc(C(F)(F)F)c1	-2.3%	i	-1.47
Cc1[nH]n(-c2ccc([N+](=O)[O-])cc2)c(=O)c1C=NCCN1CCN(C(=O)c2cccc(F)c2)CC1	1.6%	i	/
CCOC(=O)CSc1nnc(CSc2nc3ccccc3c(=O)[nH]2)n1-c1ccccc1	4.9%	i	-0.4
CCOC(=O)c1[nH]c(C)c(C(=O)NC2CCCCCC2)c1C	4.6%	i	-1.26
Cc1ccc(N(CC(=O)Nc2ccc(S(=O)(=O)N3CCOCC3)cc2)S(C)(=O)=O)cc1C	8.0%	i	-0.42

Remaining list, next part:
Molecule	Hsc70	MT1-MMP reporter	WNV protease inh
CCS(=O)(=O)Nc1c(C)n(C)n(-c2ccccc2)c1=O	8.3%	i	/
Fc1ccc(-c2cc3nc(-c4ccccc4)cc(N4CCOCC4)n3n2)cc1	8.0%	i	0.02
COc1ccc(Cl)c(Cn2c(NCCCO)nc3c2c(=O)n(C)c(=O)n3C)c1	-5.1%	i	-0.11
CCN1CCN(C(=O)C(C)N(c2ccc(C)cc2)S(C)(=O)=O)CC1 (stereo unspecified)	5.0%	i	0.59
O=c1cc(CSc2nnnn2-c2ccccc2)nc2nc[nH]n12	-2.3%	i	0.87
CCCn1c(SCC(=O)Nc2nc(C)cs2)nnc1-c1cccnc1	1.9%	i	-1.15
CCOc1ccc2[nH]c(=O)c(CN(Cc3ccco3)Cc3nnnn3Cc3ccccc3)cc2c1	1.5%	i	0.52
CN1C(=O)NC2(O)C(=O)c3ccccc3C12O (stereo unspecified)	-4.2%	i	/
CC(C)(S)[C@@H](N)C(=O)O	-6.7%	i	-1.76
Cc1nc(NC(=O)CN2CCOCC2)sc1-c1ccccc1	-5.2%	i	-0.43
O=C(c1cnn2c(C(F)(F)F)cc(-c3ccccc3)nc12)N1CCCc2ccccc21	8.2%	i	/
CC(C)C(NC(=O)c1cccs1)c1nnc(SCC(=O)Nc2nccs2)n1C (stereo unspecified)	10.7%	i	-0.3
CCc1[nH]nc2c1C1(C(=O)N(Cc3ccccc3)c3ccccc31)C(C#N)=C(N)O2 (stereo unspecified)	1.1%	i	-0.17
COc1ccc(OC)c(CCNC(=O)CC2Oc3ccccc3NC2=O)c1 (stereo unspecified)	-1.9%	i	-0.56
COc1ccccc1-c1cc2ccccc2[nH]1	-0.2%	i	/
O=c1c2ccccc2nc2c3ccccc3ncn12	0.1%	i	2.56
NC(=O)C1CCN(C(=O)COc2ccc3ccccc3c2)CC1	-5.1%	i	/
O=C(NCCN1CCOCC1)C1CCN(S(=O)(=O)N2CCCCC2)CC1	7.4%	i	0.16
CCNc1ccc(Br)cc(C(=O)/C=C/c2ccc(Cl)cc2Cl)c1=O	-22.3%	i	/
COc1cccc(-c2nc(C(N)=O)c3[nH]c(=O)n(-c4cccc(Cl)c4)c3n2)c1OC	-2.7%	i	-0.51
OC(C#CCN1CCOCC1)(c1ccccc1)C1CCCCC1 (stereo unspecified)	0.6%	i	/
Cc1cc(C)cc(N(CC(=O)Nc2c(C)n(C)n(-c3ccccc3)c2=O)S(C)(=O)=O)c1	3.8%	i	-0.22
CCC1Oc2ccc(C)cc2N(CC(=O)NCc2ccccc2OC)C1=O (stereo unspecified)	-2.6%	i	-0.34
Cc1cc(C)c(NC(=O)Cn2cc3c(n2)CCCC3)c(C)c1	4.1%	i	0.75
Cc1cc(C(F)(F)F)nc(SCC(=O)NC2CC3CCC2C3)n1 (stereo unspecified)	-1.6%	i	0.11
O=C(Nc1ccccc1Cl)c1c(F)c(F)c(F)c(F)c1F	-6.8%	i	1.01
CCCCNC(=O)CC1Nc2ccccc2NC1=O (stereo unspecified)	12.2%	i	-0.56
CCCOc1ccc(S(=O)(=O)NCCN2CCOCC2)c2ccccc12	2.3%	i	0.03
Cc1ccc(C)c(/C(O)=C2\C(=O)C(=O)N(CCCn3ccnc3)C2c2ccncc2)c1 (stereo unspecified)	6.6%	i	-0.21
O=C(NC1CCCCC1)C(c1ccccc1)N1CCOCC1 (stereo unspecified)	1.5%	i	-0.93
Cc1ccc(Cn2ccc(NC(=O)c3cc(C(C)C)on3)n2)cc1	2.6%	i	-0.01
Cc1ccccc1-c1nnc(SCC(=O)Nc2cccc(C)c2C)o1	-8.8%	i	0.1
CN1C(=O)CC(N2CCC(C(N)=O)(N3CCCCC3)CC2)C1=O (stereo unspecified)	0.2%	i	-0.25
COc1ccc(NC(=O)c2cc(C(C)C)on2)c(OC)c1	0.1%	i	-0.12
Cc1cc(C)c(S(=O)(=O)c2ccccc2C(=O)O)c(C)c1	4.5%	i	/
COc1cc(C(=O)Nc2ccc(OCC(=O)O)cc2)cc(OC)c1OC	-1.7%	i	0.71

Compound activity: PubChem, several laboratories
